KCNQ2 block: KCNQ2 channel blockers in CHO-K1 cells – cell-based, FluxOR thallium flux, B-score, primary screen (AID 2156). 310,000 tested, 1.1% active. B-score at 10 µM. 20 min; stronger effect = lower value; only compounds with negative scores are shown here; some inactives read as strong as hits. O88943;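 active = fluorescence ratio B-score at most minus 3 library SDs, with starting brightness B-score within 2 library SDs, cut at about -5.5 in these data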
Target sequence (O88943 whole entry, looked up): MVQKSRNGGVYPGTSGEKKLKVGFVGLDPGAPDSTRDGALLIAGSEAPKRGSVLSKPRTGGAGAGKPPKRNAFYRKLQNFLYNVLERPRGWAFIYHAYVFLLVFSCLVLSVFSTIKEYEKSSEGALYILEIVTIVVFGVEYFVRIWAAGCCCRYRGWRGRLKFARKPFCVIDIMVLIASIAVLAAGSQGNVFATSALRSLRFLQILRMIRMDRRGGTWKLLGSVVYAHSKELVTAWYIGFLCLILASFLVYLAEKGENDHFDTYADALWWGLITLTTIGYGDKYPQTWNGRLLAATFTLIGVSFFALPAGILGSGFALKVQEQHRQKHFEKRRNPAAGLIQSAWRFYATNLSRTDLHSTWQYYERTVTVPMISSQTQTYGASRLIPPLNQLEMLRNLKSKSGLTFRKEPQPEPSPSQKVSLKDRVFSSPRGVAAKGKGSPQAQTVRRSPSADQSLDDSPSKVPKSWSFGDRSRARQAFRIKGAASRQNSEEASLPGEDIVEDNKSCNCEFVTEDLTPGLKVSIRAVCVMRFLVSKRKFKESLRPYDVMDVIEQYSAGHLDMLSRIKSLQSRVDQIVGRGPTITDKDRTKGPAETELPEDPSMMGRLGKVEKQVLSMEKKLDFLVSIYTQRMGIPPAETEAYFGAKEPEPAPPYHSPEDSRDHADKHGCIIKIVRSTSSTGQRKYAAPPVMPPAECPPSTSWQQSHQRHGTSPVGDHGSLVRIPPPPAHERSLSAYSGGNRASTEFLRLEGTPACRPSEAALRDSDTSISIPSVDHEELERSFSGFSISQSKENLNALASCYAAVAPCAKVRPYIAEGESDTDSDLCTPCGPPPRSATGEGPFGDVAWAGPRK
KCNQ2 block baseline: recorded beside KCNQ2 block, whose call it bears; B-score; measured here: initial fluorescence intensity artifact check;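 brightness before thallium and not channel activity; 0 = typical well and far values either way flag optical interference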
* = called active by the depositor; i = inactive. Some of the compounds tested. The share of hits here may be higher or lower than overall.

SMILES	KCNQ2 block	KCNQ2 block baseline
COc1ccc(N(CC(=O)NCCSc2ccccc2)S(=O)(=O)c2ccccc2)cc1	i	2.45
O=C1CN(C(=O)c2cc(Br)c(Br)s2)c2ccccc2N1	i	-1.89
CC1CCCCN1CCCNC(=O)CCCN1C(=O)c2cccnc2Sc2ccccc21 (stereo not given)	i	-2.72
CCOCCn1c(N2CCCC2)nc2c1c(=O)n(C)c(=O)n2C	i	0.75
O=C1CCCCC1c1cccc2ccccc12 (stereo not given)	i	0.11
Cc1cccc(-n2cc(-c3ccccc3)c3c(NN4CCOCC4)ncnc32)c1	i	-2.15
CC(C)C(=O)OC/C(O)=C(\C#N)c1nc2ccccc2[nH]1	i	1.03
Cc1cc(C)c(C#N)c(SCc2ccccc2)n1	i	1.47
Cc1ccnc(NC(=O)Nc2ccc3c(c2)N(C)C(=O)CS3)c1	i	0.51
COc1ccc([N+](=O)[O-])cc1COc1cc(C)cc2oc(=O)cc(-c3ccccc3)c12	i	-1.93
CC1(C)c2ssc(=S)c2-c2ccccc2N1C(=O)CSC1=NCCS1	i	0.62
c1ccc(-c2cc(N3CCOCC3)nc3ccccc23)cc1	i	0.86
COc1ccc(-c2nc(CSCC(=O)NCCC3=CCCCC3)c(C)o2)cc1OC	i	0.15
CN(c1ccccc1)P(=O)(N(C)c1ccccc1)N(C)c1ccccc1	i	2.45
COc1ccccc1C1C2CCCCC2(O)CCN1CC(=O)Nc1ccccc1 (stereo not given)	i	-1.58
O=C(Cn1nc(-c2ccc(N3CCOCC3)c([N+](=O)[O-])c2)c2ccccc2c1=O)N1CCCCC1	i	0.37
CC(C)(C)c1ccc(S(=O)(=O)N2CCN(CC(=O)NC(=O)NC3CCCCC3)CC2)cc1	i	-0.01
O=C(CCCOc1ccc(Cl)cc1Cl)Nc1ccccn1	i	0.01
COc1ccc(OC)c(CCNC(=O)CS(=O)(=O)Cc2nc(-c3ccccc3C)oc2C)c1	i	-0.06
O=C(Nc1nnc(-c2ccco2)o1)c1cccc(Cl)c1	i	1.54
CC1(C)C2CCC1(CS(=O)(=O)N1CCC(C(=O)O)CC1)C(=O)C2 (stereo not given)	i	1.05
COC(=O)c1cn(CC(=O)NCc2cccs2)c2ccccc12	i	2.82
Cc1ccc(-c2c(C(=O)N/N=C/c3ccoc3)nnn2-c2nonc2N)cc1	i	3.05
COc1cc(C2NC(=O)CS2)cc(OC)c1OC (stereo not given)	i	-0.67
Oc1ccc(Cl)cc1C1=Nc2ccccc2N=C(c2ccco2)C1	i	0.1
Other entries:
SMILES	KCNQ2 block	KCNQ2 block baseline
Cc1ccc(S(=O)(=O)N(CC(=O)NCCSCc2ccco2)c2ccc(F)cc2)cc1	i	0.68
Cc1cc(C(F)(F)F)nc(SCC(=O)Nc2c(C)n(C)n(-c3ccccc3)c2=O)n1	i	-0.71
CCCCn1c(N)c(N(CCOC)C(=O)COc2ccc(Cl)cc2)c(=O)[nH]c1=O	i	0.02
CCC(C)c1ccc(O)c(NC(=O)c2cccnc2)c1 (stereo not given)	i	0.41
COc1ccc(-c2ccc(CCC(=O)O)n2NC(=O)c2cccs2)cc1	i	-0.41
COc1ccc(C(=O)Nc2cccc(C(C)=O)c2)cc1OC	i	-1.13
Cc1oc(-c2cccc(Cl)c2)nc1CN(C)C1CCOC1 (stereo not given)	i	0.37
COC(=O)C(CC(C)C)NC(=O)C(Cc1ccccc1)NC(=O)C1CCCN1C(=O)OC(C)(C)C (stereo not given)	i	-2.2
COCCN(CCOC)S(=O)(=O)c1ccc(C(=O)Nc2nc(-c3ccccc3)c(C(=O)c3ccccc3)s2)cc1	i	-0.05
CN1CCc2c(sc(N)c2C(N)=O)C1	i	0.39
Cc1nc(SCCO)c2oc3ccccc3c2n1	i	-0.88
CCCn1c(=O)c(C(=O)c2ccccc2)nc2ccccc21	i	-0.12
CC1(c2nnc(Cc3ccccc3)o2)CC(c2ccc(OC(F)(F)F)cc2)=NO1 (stereo not given)	i	-0.26
COc1ccc(Nc2nc(C(=O)N3CCc4ccccc4C3)cs2)cc1	i	0.7
CN(Cc1ccccc1)C(=O)COC(=O)c1ccc(Cl)cc1N	i	0.25
c1ccc(Cn2nnc3c(NCC4CCCO4)nc(C4CC4)nc32)cc1 (stereo not given)	i	0.02
COc1ccc(C(CC(=O)O)n2cnnn2)cc1 (stereo not given)	i	-0.2
Cc1ccc(SCCc2cc[n+](CC(=O)c3ccccc3)cc2)cc1	i	0.67
O=C(Nc1ccc(Br)cc1)c1cccc(NC(=O)C2C3CC4OC(=O)C2C4C3)c1 (stereo not given)	i	0.02
Cc1nnc(SCC(=O)N2c3ccccc3CC2C)[nH]c1=O (stereo not given)	i	-0.8
C=CCN(C(=O)Cn1nc(C)n2c(cc3cc(C)ccc32)c1=O)c1ccccc1	i	-0.5
O=C(/C=C/Nc1ccc(F)cc1)c1ccco1	i	-1.14
COc1ccc(/C=N/NC(=O)c2cccnc2)c(C(=O)O)c1OC	i	-0.5
Cc1sc2nc(-c3ccco3)oc(=O)c2c1C	i	0.41
COc1ccccc1CC(=O)Nc1ccc(-c2nnc(-c3ccco3)o2)cc1	i	0.24
Carrying on.
SMILES	KCNQ2 block	KCNQ2 block baseline
Cc1cc(O)c(-c2cc(C(=O)Nc3ccc(S(=O)(=O)N4CCOCC4)cc3)[nH]n2)cc1C	i	0.55
Cc1ccc(C)c(C(=O)COc2ccc(C)nc2[N+](=O)[O-])c1	i	-0.85
Cc1nc(/C(=N/O)C(N)=O)cs1	i	5.78
N#C/C(=C/C=C/c1ccccc1)C(=O)Nc1ccccc1	i	0.5
COc1ccccc1CN1CC(C(=O)NCCCc2ccc(F)cc2)CCC1=O (stereo not given)	i	-0.76
Cc1cccc2sc(NC(=O)C3=NN(c4ccccc4)C(=O)CC3)nc12	i	0.18
COCCn1c(=O)[nH]c2cc(C(=O)OC)ccc2c1=O	i	0.19
COc1ccc(C)cc1S(=O)(=O)N(CC(=O)O)c1ccc(F)cc1	i	0.52
C=CCSc1nc(N)c2c3c(sc2n1)CN(C)CC3	i	1.05
O=C(CNC(=S)N(Cc1ccccc1F)C1CCCCC1)NC1CC1	i	1
CCOC(=O)c1ccc(NC(=O)CSc2ccc(-c3ccccn3)nn2)cc1	i	-0.76
CCc1nccn1S(=O)(=O)c1ccc(OC)c(C)c1C	i	0.03
COC(=O)c1ccc(S(=O)(=O)N(C2CCCCC2)C2CCCCC2)n1C	i	3.07
CN1CCc2c(sc3nc(SCC(N)=O)n(-c4ccccc4)c(=O)c23)C1	i	2.5
COc1cc(CCC(=O)OCC(=O)N(CCC#N)c2ccccc2)cc(OC)c1OC	i	-0.07
COc1ccccc1NC(=O)Cc1noc(CSc2cc(C)c3ccccc3n2)n1	i	0.51
CSc1ncccc1C(=O)NCC12CC3CC(CC(C3)C1)C2	i	-0.68
Fc1cccc(NC(=S)NC2CCCCCCC2)c1	i	-1.84
Cc1nc2cc(C(=O)OCC(=O)NC3CCS(=O)(=O)C3)ccc2n1-c1ccccc1 (stereo not given)	i	-2.1
N#Cc1ncc(-c2ccc3c(c2)OCCOCCOCCOCCOCCO3)nc1C#N	i	-1.48
COc1cc(C2OC(=O)c3ccccc3S2)cc(OC)c1OC (stereo not given)	i	1.91
O=C(COc1ccc(Cl)cc1)NC1=NN(c2ccccc2)C(=O)C1	i	1.37
CC(C)(C)Nc1nc(Nc2ccc([N+](=O)[O-])cc2)nc(NC(C)(C)C)n1	i	0.29
COC(=O)/C=C1/S/C(=N/NC(=O)c2ccccc2C)NC1=O	i	-0.35
COCCN(C(=O)Cc1cccs1)C(C(=O)NCc1ccc(OC)cc1)c1ccc(C(C)C)cc1 (stereo not given)	-8.57*	-0.55*
Next section
SMILES	KCNQ2 block	KCNQ2 block baseline
Cc1cccc(OCC(=O)NCC(=O)N=Nc2c(O)[nH]c3ccc([N+](=O)[O-])cc23)c1	i	-1.44
COc1ccccc1CN(Cc1ccco1)S(=O)(=O)c1ccc(-n2cnnn2)c(OC)c1	i	0.22
CC(=O)Nc1ccc(NC(=O)Cn2cc3c(n2)CCCC3)cc1	i	0.31
COc1ccc(C2CC(=O)Oc3c(C(CCN4CCCCC4)c4ccc(N(C)C)cc4)c(OC)cc(OC)c32)cc1 (stereo not given)	i	0.27
COc1c(CC=C(C)C)cc(C2CC(=O)c3c(O)cc(O)cc3O2)cc1CC=C(C)C (stereo not given)	-5.6*	-1.02*
O=C(O)CN1C(=O)COc2cc(S(=O)(=O)N3CCCC3)ccc21	i	2.38
Cc1ccc(NC(=S)NC(=O)C2CCC2)cc1C	i	0.64
CCCOc1ccc(C(=O)Nc2ccc(Cl)cn2)cc1	i	-0.3
COc1ccc(NC(=O)CN2CCN(c3ccccc3)CC2)cc1	i	-0.85
CCCOc1ccc(NC2=CC(=O)CC(C)(C)C2)cc1	i	-0.39
CCC(C)C(=O)Nc1cc(OC)c(OC)cc1C(=O)O (stereo not given)	i	0.82
Cc1nc2ccn(Cc3ccccc3)c(=O)c2cc1C(=O)N1CCN(c2ccc(F)cc2)CC1	i	-1.8
CCc1nnc(NS(=O)(=O)c2ccc(N3C(=O)c4ccccc4C3=O)cc2)s1	i	1.02
CC(C)N(C(=O)CSc1nnc(CN2CCCCCC2=O)n1-c1ccccn1)C(C)C	i	0.23
C=CCN(CC=C)C(=O)C(=O)c1cc(C)n(-c2ccc([N+](=O)[O-])cc2)c1C	i	-0.49
COc1cc(NC(=O)CN2CCCCC2)c(C)cc1[N+](=O)[O-]	i	-0.56
CC(=O)C1=C(C)OC(N)=C(C#N)C1c1cc([N+](=O)[O-])ccc1Cl (stereo not given)	i	0.23
CC(=O)O/N=C(\N)c1cnn2c(C(F)(F)F)cc(C(F)(F)F)nc12	i	-4.52
CCCCn1c(/C=C/c2ccco2)nc2ccccc21	i	-0.21
O=C1N=C(N2C=CC(=C3C=CNC=C3)C=C2)/C(=C/N=NC(=O)c2ccccc2)S1	i	1.57
O=C(Cc1c[nH]c2ccccc12)OCCOC(=O)Cc1c[nH]c2ccccc12	-7.66*	-2.35*
Cc1ccc(N(C(=O)Cc2cccs2)C(C(=O)NC2CCCC2)c2ccncc2)cc1 (stereo not given)	i	0.42
Cn1c2ccccc2c2cc(C(=O)N3CCN(CCO)CC3)sc21	i	0.33
COc1ccc(Cc2nnc(SCC(=O)c3cccc([N+](=O)[O-])c3)n2C)cc1	i	0.98
O=C(Nc1cc(S(=O)(=O)N2CCOCC2)ccc1N1CCOCC1)c1ccc(S(=O)(=O)N2CCCCC2)cc1	i	0.21

Rewritten as a markdown table: 16 of the compounds above.
| SMILES | KCNQ2 block | KCNQ2 block baseline |
| --- | --- | --- |
| COc1c(CC=C(C)C)cc(C2CC(=O)c3c(O)cc(O)cc3O2)cc1CC=C(C)C (stereo not given) | -5.6* | -1.02* |
| O=C(O)CN1C(=O)COc2cc(S(=O)(=O)N3CCCC3)ccc21 | i | 2.38 |
| Cc1ccc(NC(=S)NC(=O)C2CCC2)cc1C | i | 0.64 |
| CCCOc1ccc(C(=O)Nc2ccc(Cl)cn2)cc1 | i | -0.3 |
| COc1ccc(NC(=O)CN2CCN(c3ccccc3)CC2)cc1 | i | -0.85 |
| CCCOc1ccc(NC2=CC(=O)CC(C)(C)C2)cc1 | i | -0.39 |
| CCC(C)C(=O)Nc1cc(OC)c(OC)cc1C(=O)O (stereo not given) | i | 0.82 |
| Cc1nc2ccn(Cc3ccccc3)c(=O)c2cc1C(=O)N1CCN(c2ccc(F)cc2)CC1 | i | -1.8 |
| CCc1nnc(NS(=O)(=O)c2ccc(N3C(=O)c4ccccc4C3=O)cc2)s1 | i | 1.02 |
| CC(C)N(C(=O)CSc1nnc(CN2CCCCCC2=O)n1-c1ccccn1)C(C)C | i | 0.23 |
| C=CCN(CC=C)C(=O)C(=O)c1cc(C)n(-c2ccc([N+](=O)[O-])cc2)c1C | i | -0.49 |
| COc1cc(NC(=O)CN2CCCCC2)c(C)cc1[N+](=O)[O-] | i | -0.56 |
| CC(=O)C1=C(C)OC(N)=C(C#N)C1c1cc([N+](=O)[O-])ccc1Cl (stereo not given) | i | 0.23 |
| CC(=O)O/N=C(\N)c1cnn2c(C(F)(F)F)cc(C(F)(F)F)nc12 | i | -4.52 |
| CCCCn1c(/C=C/c2ccco2)nc2ccccc21 | i | -0.21 |
| O=C1N=C(N2C=CC(=C3C=CNC=C3)C=C2)/C(=C/N=NC(=O)c2ccccc2)S1 | i | 1.57 |

(next part)
SMILES	KCNQ2 block	KCNQ2 block baseline
COc1ccc(OC)c(C2C3=C(CCCC3=O)Nc3nnnn32)c1 (stereo not given)	i	0.05
O=C(c1cc(-c2ccc3c(c2)OCO3)on1)N1CCN(c2ccc(F)cc2)CC1	i	-0.86
Clc1ccccc1CSc1snnc1-c1ccccc1	-5.55*	-0.04*
CCCCOc1ccc(CSCCN=C(N)N)cc1	i	0.9
CCn1c2ccccc2c2cc(CN3CCN(C(=O)c4ccco4)CC3)ccc21	i	-1.62
Brc1ccc2ncnc(Nc3cccc4ccccc34)c2c1	i	-0.39
CC(c1ccc(F)cc1)n1c(-c2ccc3ccccc3n2)n[nH]c1=S (stereo not given)	i	1.61
OC(COC(c1ccc(F)cc1)c1ccc(F)cc1)CN1CCCC(C(F)(F)F)C1 (stereo not given)	i	0.27
Cc1ccc(NCC(=O)N/N=C/c2cc(O)ccc2[N+](=O)[O-])cc1	i	0.11
N/C(=N\OCc1ccc([N+](=O)[O-])cc1)c1ccncc1	i	0.08
Cc1c(NC(=O)CN2c3ccccc3CC2C)c(=O)n(-c2ccccc2)n1C (stereo not given)	i	0.85
O=S(=O)(Nc1cc(C(F)(F)F)ccc1N1CCOCC1)c1ccccc1	i	0.25
CCCCN(CCCC)C(=O)C[n+]1cccc(/C=N/O)c1	i	1.13
COc1cc(C(=O)N2CCC(NC(=O)C(Cc3ccccc3)NC(C)=O)CC2)cc(OC)c1OC (stereo not given)	i	1.12
OCCC1CN(Cc2ccon2)CCN1Cc1ccccc1 (stereo not given)	i	-0.15
COc1ccc(C(=O)NCCn2ccc3ccccc32)cc1	i	0.58
Cc1ccc(/C=N/NC(=O)CSc2ccccn2)o1	i	0.29
CCOC(=O)N1CCN(S(=O)(=O)c2ccc(C(=O)N(CCCN(C)C)c3nc4cc(OC)ccc4s3)cc2)CC1	i	-0.41
COc1cc2c(cc1OC)CN(C(=O)C1CCCN1S(=O)(=O)c1ccc(C)cc1)CC2 (stereo not given)	i	0.12
CC1CCCC(C)N1/N=C/c1ccc(O)c(O)c1 (stereo not given)	i	0.72
